Assay outcomes deposited in PubChem by National Center for Advancing Translational Sciences (NCATS).
HPGD block = inhibitors of human 15-hydroxyprostaglandin dehydrogenase (HPGD); P15428; purified HPGD, NADH fluorescence kinetic, PGE2 substrate; Potency, µM, without a hit: at the highest dose activity change, negative = inhibition, usual class: inhibitors; hit rate 4.3% among 150,000; active = well fitted inhibition curve with a large enough effect (not every such curve was filed as active); inconclusive = small, poorly fitted or top-dose-only effect, or another doubt; inactive = no such curve, though single readings can be large or run the other way;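 also: top concentration of the series not given in the record; plate controls included wells without enzyme; inactives centre near -10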
Target sequence (P15428 whole entry, looked up): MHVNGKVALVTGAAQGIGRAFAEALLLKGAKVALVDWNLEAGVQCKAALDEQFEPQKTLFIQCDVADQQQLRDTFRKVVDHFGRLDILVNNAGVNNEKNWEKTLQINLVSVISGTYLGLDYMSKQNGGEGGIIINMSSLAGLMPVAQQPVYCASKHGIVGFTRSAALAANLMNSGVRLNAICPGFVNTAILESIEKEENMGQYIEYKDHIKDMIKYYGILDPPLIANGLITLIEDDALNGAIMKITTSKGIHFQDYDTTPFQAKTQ
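NADH formation kinetics: reaction with 30 uM PGE2 and 1 mM NAD+ (final), 20 nM enzyme, Tris-HCl pH 8 with Tween 20, after 15 min compound preincubation at room temperature. Fluorescence change, last versus first of five reads.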
* hit, by the source's call; u = inconclusive; & = joins results of further samples; ! = a repeat was not active. % is scaled to controls: 0 for no effect and ±100 for the full control effect; potency is read from the fitted curve at half-maximal effect.

HPGD block	Structure
u	CC1CCC(NC(=O)Nc2cccs2)CC1 (stereo unspecified)
-7%	COc1ccc(NC(=O)C(C)N(c2ccc(C)cc2)S(C)(=O)=O)c(OC)c1 (stereo unspecified)
-20%	CCOc1ccccc1CNC(=O)c1cc2occc2n1C
-6%	CCc1ccc(OCC(=O)N/N=C2\CC(=O)c3ccccc32)cc1
u	COc1cc(C(=O)Nc2cccc(-c3nc4cc(C)ccc4o3)c2)cc(OC)c1OC
-11%	CCCOc1ccc(/C(CC)=N/NC(=O)C2(C)CC2(Br)Br)cc1 (stereo unspecified)
-4%	O=C(c1ccccc1)N(Cc1ccco1)C1CCS(=O)(=O)C1 (stereo unspecified)
-13%	Cc1cc(C)cc(NS(=O)(=O)c2ccc(NC(=S)NC(=O)c3ccc(Br)o3)cc2)c1
u	CCN(Cc1ccccc1)S(=O)(=O)c1ccc2oc(C(=O)O)c(C)c2c1
-16%	CN(C)S(=O)(=O)c1cccc(C(=O)Nc2ccc(Cl)cn2)c1
-4%	CO/N=C(/CS(=O)(=O)Cc1ccccc1Cl)c1ccc(Cl)cc1Cl
7.9µM*	CCCC(=O)NCc1ccc2c(c1)cc(C)n2C
22µM*	Cc1c(C(=O)NCCSCc2ccc(Cl)cc2Cl)cccc1[N+](=O)[O-]
-10%	CCc1ccc(C(=O)COC(=O)CCc2nc3ccccc3c(=O)[nH]2)cc1
-2%	Cc1nccn1CC(=O)N/N=C/c1cccc(O)c1
-4%	COc1ccc(C)cc1-n1nnnc1SCC(=O)Nc1cc(C)on1
-7%	Cc1nc2ccccc2c(=O)n1NCc1cc(Br)cs1
-16%	C/C(CC(O)(/C=N/O)c1ccccc1)=N\O (stereo unspecified)
-8%	CCOC(=O)C(C#N)c1ccccn1 (stereo unspecified)
-4%	COc1cc(C)c(N(C(C)=O)c2ccccc2)c(C)c1
4µM*	O=c1[nH][nH]c(=S)c(=O)[nH]1
-21%	COc1ccc(-n2cnc3cc(NC(=O)c4ccco4)ccc32)cc1
-16%	O=C(NC1CCCCC1)c1ccccc1NC(=O)C1CC1
u	COc1ccc(-c2nnc3sc(CCN4C(=O)c5ccccc5C4=O)nn23)cc1
u	O=S(=O)(Nc1ccc(Cl)cc1Cl)c1cc(Cl)ccc1Cl
-16%	Cc1ccc(S(=O)(=O)Cc2ccc(C(=O)N3CCc4ccccc4C3)o2)cc1
-3%	O=S(=O)(NC1c2cccc3cccc(c23)C1Sc1ncccn1)c1ccccc1 (stereo unspecified)
22µM*!	COc1cc(/C=C/C(=O)/C=C(O)/C=C/c2ccc(O)c(OC)c2)ccc1O
-11%	CCCCC(=O)NCCc1ccc(S(N)(=O)=O)cc1
-2%	COCC(=O)O
-1%	CCOc1cc(C(=O)OC(C)C(=O)Nc2ncc(Cl)cc2Cl)ccc1OCC(=O)N1CCOCC1 (stereo unspecified)
-8%	Cc1nn(CC(=O)NCCc2ccccc2)c(=O)c2ccccc12
-5%	OCCN(CC(O)COc1ccccc1)CC(O)Cn1ccc2ccccc21 (stereo unspecified)
-4%	COc1ccc(CN=C(C)c2c(C(F)(F)F)[nH]n(-c3nc4ccccc4s3)c2=O)cc1
-15%	CCCCOC(=O)c1ccc(NC(=O)CSCc2n[nH]c(=O)[nH]2)cc1
-9%	Nc1nc(-c2ccc(Cl)cc2)cc(C(F)(F)F)n1
-11%	O=C(Nc1nnc(C2CC2)o1)c1ccc(S(=O)(=O)N2CCCc3ccccc32)cc1
-28%	Cc1nc(-c2ccccc2)sc1-c1n[nH]c(=S)n1C
-27%	Nc1nonc1-n1nnc(C(=O)N/N=C/c2cc(Br)ccc2O)c1CSC1=NCCS1
u	COC(=O)c1nc(NC(=O)c2ccccc2Cl)n[nH]1
6%	CCOC(=O)Cc1nnc(Nc2ccc(C)cc2)c2ccccc12
-10%	O=C(Cc1ccc(F)cc1)N1CCN=C1SCc1ccc([N+](=O)[O-])cc1
-6%	Cc1nc2[nH]c(=S)n(C)c(=O)c2nc1C
-3%	COc1ccc(NC(=O)CSc2nc3ncccc3[nH]2)cc1OC
-2%	COc1ccc2c(c1)OC1(C)CC2C(C(=O)c2ccccc2OC)C(=O)N1 (stereo unspecified)
u	CSc1oc(-c2ccco2)nc1S(=O)(=O)c1ccc(F)cc1
2%	CC(=O)N1CCN(c2ccccc2NC(=O)c2cc(Br)ccc2Cl)CC1
-11%	CCOC(=O)Cc1csc(SCC(=O)Nc2cc(Cl)ccc2Oc2ccccc2)n1
u	COCCCn1c(CCC(=O)O)ccc1-c1ccc(F)cc1
-26%	COc1cc(OC)cc(C(=O)NC2=NCCS2)c1

7 compounds picked at random from the list so far:
HPGD block	Structure
-4%	COc1ccc(CN=C(C)c2c(C(F)(F)F)[nH]n(-c3nc4ccccc4s3)c2=O)cc1
u	O=S(=O)(Nc1ccc(Cl)cc1Cl)c1cc(Cl)ccc1Cl
-5%	OCCN(CC(O)COc1ccccc1)CC(O)Cn1ccc2ccccc21 (stereo unspecified)
-9%	Nc1nc(-c2ccc(Cl)cc2)cc(C(F)(F)F)n1
-28%	Cc1nc(-c2ccccc2)sc1-c1n[nH]c(=S)n1C
u	CC1CCC(NC(=O)Nc2cccs2)CC1 (stereo unspecified)
-1%	CCOc1cc(C(=O)OC(C)C(=O)Nc2ncc(Cl)cc2Cl)ccc1OCC(=O)N1CCOCC1 (stereo unspecified)

(more compounds)
HPGD block	Structure
u	Cc1nc(N2CCOCC2)c2nc(-c3ccccc3)n(CCN3CCCCC3)c2n1
-20%	CSC1=C(C#N)C(c2cccs2)CC(=O)N1C (stereo unspecified)
-1%	Cc1ccc(OC(=S)Nc2ccc(F)cc2)cc1
-6%	Cc1nc2c(-c3ccc(F)cc3)c(C)nn2c(C)c1CCC(=O)N1CCOCC1
-7%	CSc1ccccc1NC(=O)CSCc1ccc(Br)cc1
-21%	CCOC(=O)c1ncn2c1C(=O)OC2(C)C
-18%	Cc1cc(C(=O)CN2C(=O)c3ccccc3C2=O)c(C)n1C1CC1
-15%	O=C(CSc1nnc(CNc2ccc(Cl)cc2)n1Cc1ccccc1)NCc1ccco1
-16%	CCCCOc1ccc(Cl)cc1CSc1nncn1N
u	N#CC1(NC(=O)COc2ccc3oc4ccccc4c3c2)CCCCC1
-5%	COCCCNC(c1ccccc1)c1ccncc1 (stereo unspecified)
-13%	O=C(CC1Nc2ccccc2NC1=O)Nc1ccccc1 (stereo unspecified)
-6%	CCOc1ccc(OCC)c(NS(=O)(=O)c2cccc3nsnc23)c1
-25%	Cc1ccccc1NC(=O)c1ccc(CN(c2ccccc2)S(=O)(=O)c2ccccc2)cc1
u	CCOC(=O)c1sc(NC(=O)CSc2nc3c(cc2C#N)CCCCC3)c(C#N)c1C
-14%	CCCCOc1ccc(/C=N/NC(=O)c2csc(C)c2C)cc1
u	COC(=O)c1sccc1NC(=O)c1cc(-c2cccc(C)c2)nc2ccccc12
-6%	O=C1NC(NS(=O)(=O)c2ccccc2)(C(F)(F)F)C(=O)N1c1ccc(F)cc1 (stereo unspecified)
-9%	CCn1c2ccccc2c2cc(C3C(C#N)=C(N)OC4=C3C(=O)CC(C)(C)C4)ccc21 (stereo unspecified)
-10%	Cc1[nH][nH]c(=O)c1C(c1c(C)[nH][nH]c1=O)c1cn(Cc2cccc3ccccc23)c2ccccc12
14µM*	Cc1cccc(-n2c(-c3csc4ccccc34)n[nH]c2=S)c1
-5%	CCOc1ccc(N(CC(=O)NN=C2CCN(C)CC2)S(C)(=O)=O)cc1
-5%	Cc1c(NC(=O)c2ccccc2NS(=O)(=O)c2ccc(F)cc2)c(=O)n(-c2ccccc2)n1C
0%	COc1ccc(CNCCNC(=O)c2ccco2)c(OC)c1OC
u	CC(C)CC(=O)Nc1ccc2oc(-c3cccnc3)nc2c1
-7%	CCC(=O)c1ccc(OCCn2cncn2)cc1
u	COC(=O)c1c(NC(=O)c2ccc(Br)o2)sc(C)c1C
-3%	COc1cccc(C(=O)C[n+]2ccccc2/C=N/O)c1
-19%	Cc1ccc(C)c(CSc2nnc([C@@H](N)C(C)C)o2)c1
-11%	CCOc1cc(/C=N/n2nnnc2N)ccc1OCc1c(C)no[n+]1[O-]
-26%	c1ccc(-c2ncc(CSc3nncn3-c3ccccc3)s2)cc1
8.9µM*	c1ccc(Cc2nn3c(C4COc5ccccc5O4)nnc3s2)cc1 (stereo unspecified)
-8%	CC[C@H](C)[C@@H]1NC(=O)c2cc([N+](=O)[O-])cc(F)c2OCC[C@@H](C(N)=O)NC(=O)[C@H](CCCCN)NC1=O
-9%	c1ccc(NC(=NCc2ccco2)c2ccccc2)cc1
-18%	CCOC(=O)c1c(NC(C)=O)sc2c(O)c(Br)cc(Br)c12
-19%	CCOc1ccc(/C(O)=C2/C(=O)C(=O)N(CCN(C)C)C2c2ccccc2)cc1Cl (stereo unspecified)
-11%	Cc1cc(C(=O)Nc2ccc(N3CCCC3)c(Cl)c2)ccc1[N+](=O)[O-]
2%	CCOC(=O)CN1C(=O)C(O)(C2CCc3ccccc3C2=O)c2ccccc21 (stereo unspecified)
-28%	CCOC(=O)CC(=O)CSc1nc(-c2ccccc2)cc(-c2ccc(Cl)cc2)c1C#N
-15%	O=C(Nc1ccc(Cl)c(Cl)c1)Nc1nnc(-c2ccncc2)s1
-16%	O=c1c(OC2OC(CO)C(O)C(O)C2O)c(-c2ccc(O)c(O)c2)oc2cc(O)cc(O)c12 (stereo unspecified)
-8%	O=C(CSc1nnnn1-c1ccccc1)Nc1ccc(N2CCOCC2)c(Cl)c1
-11%	CCN(CC)c1ccc(/C=N/NS(=O)(=O)c2ccc(CNC(C)=O)cc2)cc1
-5%	CC1CN(c2ncnc3c2oc2ccccc23)CC(C)O1 (stereo unspecified)
-1%	COc1ccc(N(CC(=O)Nc2c(C)n(C)n(-c3ccccc3)c2=O)S(=O)(=O)c2ccc(F)cc2)cc1
-12%	CCOC(=O)c1cnc2c(cnn2C)c1NCCCN(C)C
-8%	COc1ccc(CC(NC(C)=O)C(=O)NC2CCN(c3nnnn3-c3ccccc3)CC2)cc1 (stereo unspecified)
-11%	O=C(Nn1cnnc1)c1cc2c(s1)CCCC2
-11%	O=C1OC2C[C@H]1[C@@H]1C(=O)N(Cc3ccccc3)CCC1C2I (stereo partly specified)
-19%	CCN(Cc1ccccc1)C(=O)C1CCN(Cc2sccc2C)CC1

3 compounds out of the list above, ordered by the value under HPGD block, highest first.
Structure	HPGD block
Cc1c(C(=O)NCCSCc2ccc(Cl)cc2Cl)cccc1[N+](=O)[O-]	22µM*
Cc1cccc(-n2c(-c3csc4ccccc34)n[nH]c2=S)c1	14µM*
CCCC(=O)NCc1ccc2c(c1)cc(C)n2C	7.9µM*

(more compounds)
HPGD block	Structure
-5%	COCC(=O)N(CCc1ccc(OC)cc1)Cc1nc2ccccc2c(=O)[nH]1
-18%&-21%&-15%	NNc1nncc2ccccc12
u	CCc1nnc(NS(=O)(=O)c2ccc(NC(=S)NC(=O)c3ccc(OC)c(OC)c3)cc2)s1
-1%	COc1ccc(S(=O)(=O)NC(C)C(=O)Nc2ccccc2C(F)(F)F)cc1 (stereo unspecified)
-2%	Cc1nc2ncnn2c(C)c1Cc1ccccc1Cl
1%	Cc1nn(-c2nnc(C)c(=O)[nH]2)c(C)c1SCC(=O)Nc1ccc(F)cc1
20µM*	CCCCC1(C)OC(=O)C(=Cc2ccc(N(CC)CC)cc2)C(=O)O1 (stereo unspecified)
-5%	Cc1ccc(-n2c(SCc3ccc(C#N)cc3)nnc2-c2ccccn2)cc1
-3%	CCCCN(CC)C(=O)Cc1ccc(Br)cc1
-11%	COCCNc1nc(N)c([N+](=O)[O-])c(NCC2CCCO2)n1 (stereo unspecified)
-2%	CC(=O)c1cccc(NC(=O)NC2CCCCC2)c1
-13%	CSCC[C@H](NC(=O)OC(C)(C)C)c1nnc(SCC(=O)N(C)C)o1
-2%	CCCCN1CC(C(=O)NCc2ccc(C)cc2)CC1=O (stereo unspecified)
-4%	CCN(CC(O)Cn1c2ccccc2c2ccccc21)S(=O)(=O)c1ccc(F)cc1 (stereo unspecified)
-4%	CCn1c(SCc2ccc(Cl)cc2Cl)nc2nc3c(cc2c1=O)CCCC3
-14%	Cc1c(NC(=O)c2cc3ccccc3o2)c(=O)n(-c2ccccc2)n1C
-20%	Cc1cccc(OCC(=O)Nc2ccc3c(c2)nc(CCN2CCN(C)CC2)n3C)c1
u	Cc1nn(Cc2ccccc2)c2c1C(c1ccccc1)C(C#N)=C(N)O2 (stereo unspecified)
-5%	CCOC(=O)N1CCN(C(=O)c2ccc(-n3c(=S)[nH]c4ccccc4c3=O)cc2)CC1
-7%	Cc1ccc(C(=O)O)cc1NC(=S)NC(=O)C(c1ccccc1)c1ccccc1
-12%	Cn1cnnc1SCCn1c(N2CCCCC2)nc2c1c(=O)[nH]c(=O)n2C
u	Cc1ccc(-c2nc3ccccn3c2NCc2ccc3c(c2)OCO3)cc1
-4%	COC(=O)c1cccc(C23CC4(C2)[C@H](CN(Cc2ccc(C(F)(F)F)cc2)[C@@H]4c2ccccc2)C3c2ccc(Cl)nc2)c1 (stereo partly specified)
-22%	COc1cc(-c2cc(C(=O)O)c3c(OC)c(OC)c(OC)cc3n2)ccc1O
-8%	O=C(Nc1ccc(S(=O)(=O)Nc2ncccn2)cc1)c1cccnc1
-19%	O=C(NC(Cc1ccccc1)C(=O)O)/C(=C/c1ccco1)NC(=O)c1cccc(Br)c1 (stereo unspecified)
-27%	N#C/C(C(=O)NCCc1ccccc1)=C1/N=C(NC(=O)c2cccs2)c2ccccc21

Sorted by number of heavy atoms (descending): some entries from above.
HPGD block	Structure
-27%	N#C/C(C(=O)NCCc1ccccc1)=C1/N=C(NC(=O)c2cccs2)c2ccccc21
-7%	Cc1ccc(C(=O)O)cc1NC(=S)NC(=O)C(c1ccccc1)c1ccccc1
-3%	CCCCN(CC)C(=O)Cc1ccc(Br)cc1

A portion of the library (hit frequency here may not be typical).
